Screening results: PubChem BioAssay, National Center for Advancing Translational Sciences (NCATS)
Menin-MLL FL inh: inhibitors of human menin-MLL interaction, wild-type MLL peptide; Fluorescence polarization, fluorescein-MLL peptide displacement from menin; FP activity change, % at 61.4 µM; 290,000 tested, under 10 active; AID 1766; inconclusive = falling polarisation curve, or a change in total fluorescence; inactive = total fluorescence flat and polarisation flat or rising; no compound was filed as active; the % refers to the polarisation; negative = inhibition;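 also: % of control where 0% means no effect; inhibitors lower the polarisation; unlabelled MLL peptide was the positive control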
gsp antag: gsp mutant antagonism; gsp-mutant cells, cAMP HTRF, 30 min; control for the full effect not named in the record; Potency, µM (series often up to 76.9 µM), for inactives: at the top dose activity change, negative = inhibition, hits mostly inhibitors; actives 0.4% (n = 340,000); AID 624288; active = falling curve of any shape with a large fitted effect; inconclusive = falling curve, mostly with a smaller effect; inactive = flat or rising curve; cell line not stated here;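 also: intracellular cAMP measured with PDE inhibitor Ro 20-1724 present during compound exposure; potency is read from the fitted curve at half-maximal effect; % is scaled to controls: 0 for no effect and ±100 for the full control effect; nearly all actives have a fitted effect of over 65% in size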
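Cells, 2000/well, grown 16–24 h in DMEM 10% FBS with 0.5 mg/ml G418, then compounds plus […] (300 uM addition stock), 30 min at 37C. cAMP read by HTRF (cAMP-d2 and anti-cAMP antibody-K in lysis buffer) after 30 min RT.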
ClpP mod: qHTS Assay for Activators of ClpP. purified B. subtilis ClpP, FRET peptide cleavage, 20 min. Potency, µM (series often up to 57.5 µM), inactives show at the top dose activity change, negative = active. actives 1.9% (n = 340,000); active = well fitted falling curve with a large enough effect; inconclusive = small, poorly fitted or top-dose-only effect; inactive = no such curve, though single readings can be large or run the other way; also: potency is read from the fitted curve at half-maximal effect; the source files actives as falling curves though it sought activators and does not explain the sign; nearly all actives have a fitted effect of over 65% in size; many hits overshoot -100%
Target sequence (P80244 whole entry, looked up): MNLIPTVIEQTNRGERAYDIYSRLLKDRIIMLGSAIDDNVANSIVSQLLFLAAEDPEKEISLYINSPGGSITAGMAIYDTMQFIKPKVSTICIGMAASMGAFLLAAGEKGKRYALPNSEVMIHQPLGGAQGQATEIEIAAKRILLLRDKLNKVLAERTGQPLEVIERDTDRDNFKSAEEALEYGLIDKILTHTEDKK
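Buffer: 100 mM Tris/HCl pH8, 100 mM KCl, 0.05% low protease BSA, 2.5% glycerol, 0.01% Tween-20. ClpP 10 microg/mL final; 20 min RT; delta FRET normalized to ADEP and DMSO controls.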
TRPML1 inh: blocks the human TRPML1 channel. TRPML1-inducible cells, Ca2+ dye fluorescence, FDSS; active compounds read low; inhibition of EC80 agonist-evoked calcium signal. activity change, negative = inhibition, % (test concentration not listed). actives 0.02% (n = 390,000). Q9GZU1; in the data active means activity change below about -50%; inconclusive means about -30% to -50%; inactive means above about -30%;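 also: stimulus is agonist 54-4 at its EC80 concentration; % is scaled to controls: 0 for no effect and ±100 for the full control effect; compound concentration not given in the record; the text of the record puts the active cut at -80%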
Target sequence (Q9GZU1 whole entry, looked up): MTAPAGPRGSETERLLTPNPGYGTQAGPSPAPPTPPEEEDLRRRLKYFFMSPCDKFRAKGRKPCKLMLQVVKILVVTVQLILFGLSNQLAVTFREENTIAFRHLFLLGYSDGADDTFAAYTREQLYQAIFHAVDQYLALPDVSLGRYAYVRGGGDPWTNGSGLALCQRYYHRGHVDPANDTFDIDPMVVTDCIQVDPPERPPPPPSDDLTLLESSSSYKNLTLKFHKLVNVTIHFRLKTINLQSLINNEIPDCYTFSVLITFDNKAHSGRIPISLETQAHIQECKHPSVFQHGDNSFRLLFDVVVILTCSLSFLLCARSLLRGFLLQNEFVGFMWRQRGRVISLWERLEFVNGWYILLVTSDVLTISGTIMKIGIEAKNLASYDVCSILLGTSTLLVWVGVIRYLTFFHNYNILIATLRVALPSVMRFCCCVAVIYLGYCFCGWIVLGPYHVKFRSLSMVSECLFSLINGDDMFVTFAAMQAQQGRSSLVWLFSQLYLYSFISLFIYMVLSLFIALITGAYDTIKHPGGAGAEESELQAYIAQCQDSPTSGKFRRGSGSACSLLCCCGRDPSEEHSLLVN
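Tet-induced TRPML1-DL cells loaded with Ca8 no-wash calcium dye were read kinetically on FDSS. Compound addition was followed by EC80 agonist 54-4 (4 uM final); inhibition was read over 110 s.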
TRPV1 potentiator: enhances activation of the human vanilloid receptor TRPV1; Q8NER1; TRPV1-expressing cells, Fluo-8 calcium influx, capsaicin EC20 potentiation; host cell line not named in the record; control for the full effect not named in the record; potentiation, % at 8.33 µM; actives 0.02% (n = 320,000); AID 540277; active means potentiation above 80%; inconclusive means 30% to 80%; inactive means below 30%; also: 0% is about no effect
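Fluo-8 calcium influx in TRPV1-expressing cells, kinetic read (ex 480/em 520 nm). Compound added and read 3 min for agonist activity, followed by capsaicin at EC20 final and 2 min further read for enhancement.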
gsp ag: activates gsp, the McCune-Albright syndrome mutation. gsp mutant cells, cAMP HTRF, 30 min; control for the full effect not named in the record. Potency, µM (top dose mostly 76.9 µM), for the others: top-dose activation (cAMP increase), most hits filed as activators. actives 0.13% (n = 340,000); active = well fitted activation curve with a large enough effect; inconclusive = small, poorly fitted or top-dose-only effect, or another doubt; inactive = no such curve, though single readings can be large or run the other way; cell line not stated here;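 also: phosphodiesterase inhibitor Ro 20-1724 added with compounds to block cAMP breakdown; potency is read from the fitted curve at half-maximal effect; nearly all actives have a fitted effect of over 60% in size; about a fifth of the inactives were tested at one dose only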
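Cells in DMEM/10% FBS with G418 were pretreated with compounds in DMSO plus […] (300 uM stock) for 30 min at 37C. cAMP was measured by HTRF (cAMP-d2 plus anti-cAMP antibody-K) after 30 min at room temperature.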
Sfp PPTase inh: Sfp phosphopantetheinyl transferase inhibition | Biochemical Sfp PPTase activity, qHTS | Potency, µM, for inactives: max response, negative = inhibition, hits mostly inhibitors | actives 3.5% (n = 310,000) | AID 1490; active = well fitted inhibition curve with a large enough effect; inconclusive = small, poorly fitted or top-dose-only effect, or another doubt; inactive = no such curve, though single readings can be large or run the other way;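 also: the enzyme is Sfp with the accession as filed and its product quenches rhodamine fluorescence; potency is read from the fitted curve at half-maximal effect; 0% = enzyme reaction without inhibitor and -100% = no enzyme wells; top concentration of the series not given in the record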
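Step 1, compound plus 15 nM Sfp-PPTase, 15 min, room temperature. Step 2, add rhodamine-CoA (5 uM) and BHQ-2-YbbR (12.5 uM). Step 3, read 525/598 nm fluorescence at 0 and 30 min.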
An asterisk follows results filed as active; ? = inconclusive; · = no result given; [ ] = remark or other dose. Rows were taken by chance. Share with any hit: about 4.9%.

cpd	smiles	Menin-MLL FL inh	gsp antag	ClpP mod	TRPML1 inh
1	CCOc1cc(/C=C2\C(=O)N(CCc3ccc(OC)c(OC)c3)C(C)=C2C(=O)OC)ccc1O	5.5	-12.2%	0.7%	10.7
2	COc1ccc(OCCCC(=O)OCC(=O)Nc2sccc2C(N)=O)cc1	·	-7.6%	·	-5.5
3	COCCCNC(=O)c1cc(C)nn1-c1ccccc1	4.9	12.2%	-2.9%	35.6
4	O=C(CSc1nc2ccccc2[nH]1)Nc1ccc(N2CCOCC2)cc1	·	11.2%	1.6%	15.7
5	CC(=O)c1sc(NC(=O)c2cccc3ccccc23)nc1C	0.6	-2.3%	-2.8%	-15.7
6	Cc1ccc(S(=O)(=O)NC2=NCN(C(C)C)CN2)cc1	-7.4	16.1%	·	2.7
7	CSc1nc(Cl)cc(N2CCOCC2)n1	-0.3	0.1%	·	-1.0
8	CCOc1ccc(NS(=O)(=O)c2cc(NC(=O)C3CC3)ccc2C)cc1Br	·	?	-2.3%	9.7
9	O=C1COc2ccc(C(=O)COC(=O)Cc3ccc(Cl)cc3)cc2N1	-2.6	4.6%	-0.7%	21.1
10	CCn1c(=O)c2c(n3c(=S)[nH]nc13)-c1ccccc1CC21CCCCC1	-6.3	-7.6%	·	-6.0
11	O=C(OCc1cn([C@@H]2CN(C(=O)c3cccs3)[C@@H](c3ccccc3)C[C@H]2O)nn1)c1ccccc1	·	·	0.8%	2.9
12	Cc1ccc(SCc2cc(=O)[nH]c(/N=C(\N)Nc3ccccc3Sc3ccccc3)n2)cc1	7.3	15.7%	-12.5%	16.6

cpd	TRPV1 potentiator	gsp ag	Sfp PPTase inh
1	2.8	13.4%	50.1µM*
2	-11.8	4.4%[15.4 µM]	·
3	-1.2	-82.4%[inhibitor]	10.8%
4	3.8	-5.0%	10.0%
5	-0.6	0.0%	15.2%
6	-9.3	-9.8%[15.4 µM]	14.6%
7	-5.0	-30.1%	4.3%
8	·	-14.9%	·
9	4.9	-6.4%[15.4 µM]	11.6%
10	-6.8	-6.6%	17.8µM*
11	·	-45.3%[inhibitor]	·
12	20.0	-24.0%	0.2%

Rewritten as tab-separated lines: entries from further up
nr	Compound	Menin-MLL FL inh	gsp antag	ClpP mod	TRPML1 inh	TRPV1 potentiator	gsp ag	Sfp PPTase inh
9	O=C1COc2ccc(C(=O)COC(=O)Cc3ccc(Cl)cc3)cc2N1	-2.6	4.6%	-0.7%	21.1	4.9	-6.4%[15.4 µM]	11.6%
6	Cc1ccc(S(=O)(=O)NC2=NCN(C(C)C)CN2)cc1	-7.4	16.1%	·	2.7	-9.3	-9.8%[15.4 µM]	14.6%
12	Cc1ccc(SCc2cc(=O)[nH]c(/N=C(\N)Nc3ccccc3Sc3ccccc3)n2)cc1	7.3	15.7%	-12.5%	16.6	20.0	-24.0%	0.2%
1	CCOc1cc(/C=C2\C(=O)N(CCc3ccc(OC)c(OC)c3)C(C)=C2C(=O)OC)ccc1O	5.5	-12.2%	0.7%	10.7	2.8	13.4%	50.1µM*
2	COc1ccc(OCCCC(=O)OCC(=O)Nc2sccc2C(N)=O)cc1	·	-7.6%	·	-5.5	-11.8	4.4%[15.4 µM]	·

(list continues)
cpd	smiles	Menin-MLL FL inh	gsp antag	ClpP mod	TRPML1 inh
13	Cc1ncc(CO)c(/C=N/NC(=O)c2ccc(Br)cc2)c1O	18.0	·	·	·
14	C(=N\n1cnnc1)/c1ccc2c(c1)OCO2	6.7	8.9%	?	-4.6
15	Cc1ccc(CN2CCN(CC(=O)N3CCc4ccccc4C3)C2=O)cc1	-1.1	·	·	·
16	Cc1nc2cc(-c3ccc(F)cc3)[nH]n2c(=O)c1C	-1.6	2.0%	4.4%	14.6
17	CCOC(=O)C1=C(C)Nc2ccccc2N/C1=N\S(=O)(=O)c1ccc(Cl)cc1	·	-17.2%	-1.7%	5.6
18	COCC1CCCCN1Cc1cn(-c2ccccc2)nc1-c1ccc2c(c1)OCO2 (stereo not given)	-5.6	-3.2%	·	3.2
19	Cc1c(C(=O)NCc2cccnc2)sc2ncn(CC(=O)N3CCCCC3C)c(=O)c12 (stereo not given)	-0.8	6.5%	-2.9%	9.2
20	O=C(Cn1cnc2c(nnn2Cc2ccc(Cl)cc2)c1=O)c1ccccc1	-2.6	8.9%	0.9%	-5.3
21	Cc1ccc(C(=O)N2CCOCC2)cc1S(=O)(=O)Nc1cccc(C)c1C	-1.2	1.7%	-9.3%	14.2
22	N#CCC(=O)Nc1ccc(C(=O)NNC(=O)CCN2CCN(c3ccccc3)CC2)cc1	·	11.7%	-3.4%	37.4
23	CCOC(=O)C(Cc1ccc(O)cc1)NC(=O)CCc1c[nH]c2ccccc12 (stereo not given)	-1.1	-8.0%	1.0%	5.1
24	COc1ccc(CC(=O)N2CCN(c3ccccc3)CC2)cc1	2.5	2.0%	2.1%	9.4

cpd	TRPV1 potentiator	gsp ag	Sfp PPTase inh
13	-0.8	·	25.3%
14	·	-2.7%	19.2%
15	28.4	·	-24.9%
16	0.7	-5.4%	21.4%
17	10.0	0.2%	·
18	-1.7	-13.5%[15.4 µM]	13.5%
19	-2.2	?	12.1%
20	1.6	-34.1%[inhibitor]	9.9%
21	19.3	4.8%	3.8%
22	0.7	-0.1%	·
23	-1.4	-17.0%	2.9%
24	-9.5	22.0%	6.6%

(continued)
cpd	smiles	Menin-MLL FL inh	gsp antag	ClpP mod	TRPML1 inh
25	Fc1ccccc1NC(=S)NCCc1ccccc1	6.8	-9.3%	-2.5%	-7.4
26	Cc1ccc2oc(C(=O)N3CCN(c4cccc(C)n4)CC3)c(C)c2c1	0.3	-2.3%	0.6%	11.8
27	Cc1ccc(NC(=O)C2OCCc3ccccc32)cc1Cl (stereo not given)	1.1	6.2%	-8.2%	-16.1
28	Cc1c(NC(=S)SCc2ccccc2)c(=O)n(-c2ccccc2)n1C	-5.8	10.9%	·	14.2
29	COc1cccc(CN(C)Cc2nc(C3CC3)no2)c1	-4.2	10.1%	-1.5%	-18.4
30	CNC(=S)N(CCc1c(C)[nH]c2ccc(Cl)cc12)Cc1cccs1	2.8	·	·	·
31	CCCCN(C(=O)Cc1ccc(S(=O)(=O)N2CCOCC2)s1)c1c(N)n(CCCC)c(=O)[nH]c1=O	·	5.9%	-1.8%	1.8
32	Cc1ccc2[nH]c(-c3cccc(N)c3)cc2c1	-5.0	-8.3%	15.8µM*	-5.2
33	CCOCCCNS(=O)(=O)c1ccc(-n2cnnn2)c(OC)c1	1.9	4.3%	-0.1%	-2.2
34	Cc1c(C(=O)NCc2ccccn2)oc2ccc(Br)cc12	·	10.1%	1.1%	-15.6
35	CCc1ccc(/C=N\n2cnnc2)cc1	6.0	2.0%	·	17.9
36	Cc1ccc([C@@H]2CC=C(C(=O)O)CN2S(=O)(=O)c2ccccc2C)cc1	·	-18.4%	-0.1%	5.0

cpd	TRPV1 potentiator	gsp ag	Sfp PPTase inh
25	-17.8	0.0%	10.0%
26	-1.9	-0.5%[15.4 µM]	-9.4%
27	7.5	5.2%	8.4%
28	12.9	-1.3%	8.5%
29	-2.0	-35.7%[inhibitor]	7.8%
30	6.8	·	15.5%
31	10.5	?	·
32	0.1	22.6%	17.9%
33	8.9	1.3%	14.8%
34	0.9	15.2%	·
35	-8.6	-9.4%	16.2%
36	4.7	-1.5%	·

Next structures
cpd	smiles	Menin-MLL FL inh	gsp antag	ClpP mod	TRPML1 inh
37	CN(CC(=O)NCc1ccccn1)S(=O)(=O)c1ccc(Br)cc1	-2.2	6.3%	-0.5%	12.1
38	Cc1ccc(NC(=O)CN(C)C(=O)C(Sc2ccccc2)c2ccccc2)cc1 (stereo not given)	·	?	0.4%	0.9
39	O=C(C(=O)c1ccc(O)c(O)c1)c1ccc(O)c(O)c1	·	-14.6%	-1.2%	22.7
40	Cc1ccccc1NC(=O)c1ccccc1NS(=O)(=O)c1cccc2cccnc12	1.0	-11.2%	-1.9%	30.9
41	CC1CCCC(C)N1C(=O)COC(=O)c1cccnc1Cl (stereo not given)	·	7.6%	1.1%	-2.6
42	CC1CN(C(=O)CCC(=O)NCc2ccc(Cl)cc2)c2ccccc2S1 (stereo not given)	-0.3	2.3%	-3.7%	1.3
43	O=C(NCCc1ccccc1)C1CCC(CNc2c(N3CCCCC3)c(=O)c2=O)CC1 (stereo not given)	0.7	-0.8%	-10.9%	33.3
44	COc1ccc(C(=O)C2CCCN(Cc3ccc4nonc4c3)C2)cc1F (stereo not given)	-2.7	-1.6%	-0.8%	9.1
45	COc1ccc(CC(=O)NCc2nnc(SCc3ccc([N+](=O)[O-])cc3)n2C)cc1	-1.3	0.0%	·	4.7
46	O=C1CC(Nc2ccc(N3CCOCC3)cc2)C(=O)N1C1CCCCC1 (stereo not given)	0.7	2.7%	0.7%	-11.0
47	CCn1c(SCC(=O)N2CCC(C(N)=O)(N3CCCCC3)CC2)nnc1-c1ccccc1	1.8	1.8%	-7.2%	18.5
48	O=C(CCS(=O)(=O)c1ccc(F)cc1)Nc1nccs1	·	·	-2.5%	6.2
49	CCn1c(SCC(=O)NC2CCCC2)nnc1-c1cccnc1	·	9.6%	·	8.1

cpd	TRPV1 potentiator	gsp ag	Sfp PPTase inh
37	11.8	-4.7%	21.6%
38	6.9	15.9%	·
39	·	-44.4%[inhibitor]	·
40	21.2	24.1%	-4.5%
41	·	-7.5%	·
42	7.6	-53.9%[inhibitor]	22.4%
43	13.4	?	8.7%
44	-15.6	-1.3%	7.4%
45	5.1	-16.3%	14.9%
46	7.4	?	-5.9%
47	?	1.9%	10.0%
48	·	-41.2%[inhibitor]	·
49	3.7	-34.8%[inhibitor]	14.4%
